NPYLR7 agonist: agonists of mosquito NPYLR7 receptor, primary screen, cell-based, Aedes aegypti, calcium fluorescence, mosquito biting behavior | Aedes aegypti neuropeptide Y-like receptor 7 (NPYLR7) | HEK293T NPYLR7/Galpha15, GCaMP6s calcium fluorescence | activation, % at 10 µM | 270,000 compounds, 0.15% hits; in the data active = activation above about 40%;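 note: 0% = vehicle and 100% = reference agonist at the receptor; some compounds past the cut are filed as inactive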
NPYLR7 agonist max-min: also measured in NPYLR7 agonist; calls as there; activation, %; measured here: Max-Min RFU normalised activation; some inactives read as strong as hits;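 span of the calcium signal over five minutes; 0% = vehicle and 100% = native peptide agonist; compound fluorescence can raise it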
Starred values were filed as active, the others as inactive; & = joins results of further samples. This is a subset. The share of hits here may be higher or lower than overall.

The line under a structure holds: NPYLR7 agonist	NPYLR7 agonist max-min
- COc1cc(OC)c(OC)cc1CNC(C)c1ccc(Br)cc1 (stereo not drawn)
 : -1	7
- Cc1noc(-c2ccco2)c1C(=O)NCCCN1CCOCC1
 : 16	19
- O=C(c1ccc(C(F)(F)F)nc1)N1CCOC(COc2ccc(F)cc2)C1 (stereo not drawn)
 : 19	13
- COc1cccc(C(CN2CCN(S(=O)(=O)c3c(F)cccc3F)CC2)OCc2cccc(Cl)c2)c1 (stereo not drawn)
 : 26	10
- COc1ccc(C)c2sc(N(Cc3cccnc3)C(=O)CCc3ccccc3)nc12
 : -11	-10
- CCNC(=O)N(CCOC)CC(=O)N1CCc2sccc2C1COc1ccccc1OC (stereo not drawn)
 : -2	-3
- O=C(Cc1ccccc1)NCc1nnc(SCC(=O)Nc2ccccc2C(F)(F)F)n1-c1cccc(Cl)c1
 : -6	0
- O=C(O)c1ccc(Oc2cccc(Cl)c2Cl)nc1
 : 4&11	0&4
- CC1(C(=O)Nc2ccc3c(c2)OCO3)CCN1C(=O)CC1CC1 (stereo not drawn)
 : 3	5
- O=C(N=Nc1c(O)n(Cc2ccccc2)c2ccccc12)c1ccccc1O
 : 4	3
- Cc1ccc(CNS(=O)(=O)N2CC(C)OC(C)C2)cc1 (stereo not drawn)
 : 0	-1
- Cc1cccc(C)c1OC(=O)c1ccc([N+](=O)[O-])cc1Cl
 : -6	-5
- O=C(NCCCn1ccnc1)c1ccc(S(=O)(=O)N2CCCCCC2)cc1
 : 8	2
- NC(=O)c1ccc(CN2CCN(Cc3ccsc3)CC2)cc1
 : -1	-2
- Cc1ccccc1CCC(=O)N1CCC(n2cnc3cc(C(F)(F)F)ccc32)CC1
 : 1	0
- NC(=O)CC(N)=S
 : 24	43
- CCc1cccc(CC)c1NC(=O)CCCn1cnc2c(C)cccc2c1=O
 : 3	1
- COC(=O)[C@H]1C[C@@H](O)CCN1C(=O)c1ccccc1NCc1cccs1
 : 15	1
- O=C(Nc1ccc(Cl)c(C(F)(F)F)c1)N[C@H]1CCCCNC1=O
 : 0	0
- CCNC(=O)c1cccc(NC(=O)c2ccccc2F)c1
 : 4	2
- Cc1cn2c3c(=O)n(C)c(=O)n(C)c3nc2n1-c1ccc(OCCN2CCOCC2)cc1
 : -5	-7
- CS(=O)(=O)c1ccc(Nc2cc3c(cn2)cc(-c2cccnc2)n3Cc2ccccc2)cc1
 : 27	33
- Cn1ncc2c1NC(=O)CC2c1cc2ccccc2o1 (stereo not drawn)
 : -1	-1
- Cc1c(NC(=O)c2ccc(Br)cc2)c(=O)n(-c2ccccc2)n1C
 : 12	2
- CN(C(=O)c1cccs1)C(Cc1ccccc1)C1CCN(C(=O)CC2=CCCCC2)CC1 (stereo not drawn)
 : 6	-2
- CCCCc1ccc(N2C3=[N+](CCCS3)CC2(O)c2ccc(Cl)cc2)cc1 (stereo not drawn)
 : -4	-4
- O=C(CSc1nccn(-c2ccc(F)c(F)c2)c1=O)NC1CCCC1
 : 0	7
- c1ccc2c(c1)sc1[n+]2CCCS1
 : 0	1
- Cc1ccc(-n2nc(C)c3c(-c4ccc(O)c(O)c4)c(C#N)c(N)nc32)cc1C
 : 6	1
- CN[C@@H](C)C(=O)N(Cc1ccc(SC)cc1)C1CC1
 : 24	8
- Cc1cc(C(=O)N2CCC(n3nc(C)cc3C)C2)c2ccc(F)cc2n1 (stereo not drawn)
 : 1	12
- O=C(CC1=CCCCC1)N1CCCC(N2CCN(Cc3ccc4c(c3)OCO4)CC2)C1 (stereo not drawn)
 : -4&11	-10&9
- O=C(NCC1CC1)c1ccc(O)c(Cl)c1
 : 1	1
- Cc1cc(NC(=O)c2nc(N3CCCC3)ncc2Cl)nc(C(C)C)n1
 : 5	4
- COC(=O)C1=C(C)N(C)C(C)=C(C(=O)OC)C1c1ccccc1C
 : 4	0
- COc1ccc(CCNC(=O)c2cn(Cc3cccc4ccccc34)nn2)cc1
 : 2	-2
- CC(C)c1nc(CNc2ccccc2CC(=O)N(C)C)cs1
 : 1	1
- CCCCC1CCCN1C(=O)CSc1n[nH]c(CC)n1 (stereo not drawn)
 : 4	1
- CC(=O)OCC(=O)Nc1ccc2nc(-c3ccsc3)nn2c1
 : 1	-7
- CC(C)N(CC(=O)N(CCc1c[nH]c2ccccc12)Cc1ccc(F)cc1)C(=O)/C=C/c1ccccc1
 : -3	4

3 entries already listed, ordered by heavy-atom count, descending.
The line under a structure holds: NPYLR7 agonist	NPYLR7 agonist max-min
- O=C(Cc1ccccc1)NCc1nnc(SCC(=O)Nc2ccccc2C(F)(F)F)n1-c1cccc(Cl)c1
 : -6	0
- CCNC(=O)N(CCOC)CC(=O)N1CCc2sccc2C1COc1ccccc1OC (stereo not drawn)
 : -2	-3
- COC(=O)[C@H]1C[C@@H](O)CCN1C(=O)c1ccccc1NCc1cccs1
 : 15	1

Next part:
The line under a structure holds: NPYLR7 agonist	NPYLR7 agonist max-min
- Cc1cc(S(=O)(=O)Nc2ccc(Cl)c(N3CCCS3(=O)=O)c2)ccc1F
 : -4	5
- c1ccc(CCNCCOc2ccccc2)cc1
 : 18	8
- CN1CCN(c2cc(Cl)nc(SCc3ccc(C(=O)O)cc3)n2)CC1
 : -5	-13
- Cc1ccc(NC(=O)CC(=O)NCC2CCS(=O)(=O)C2)c(C)c1 (stereo not drawn)
 : -4	-9
- CCOC(=O)CNC(=O)N1CCSC1c1ccccc1F (stereo not drawn)
 : 16	11
- CC1CCC(C(N)=O)CN1C(=O)/C=C/c1c(F)cccc1F (stereo not drawn)
 : 0	-1
- CCOC(=O)C1CCN(c2cc(CC)nc3ncnn23)CC1
 : 0	-3
- COc1ccc(-c2cc3c(SCC(=O)Nc4ccccc4C)nccn3n2)cc1
 : 0	-4
- CC1(C(=O)NS(=O)(=O)C2CC2)CCN1C(=O)Cc1ccc(-c2ccccc2)cc1 (stereo not drawn)
 : 2	0
- COCCOc1nc(-c2ccc(Cl)c(Cl)c2)n(-c2ccc(NC(=O)c3cccs3)cc2)n1
 : 24	38
- O=C(NCc1cccnc1)c1nn(-c2ccccc2F)c(=O)n(Cc2ccccc2F)c1=O
 : -3	11
- CC(C)c1nc(CN(C)Cc2ncc[nH]2)cs1
 : 5	5
- CC(C)Nc1nc(NCCN2CCCC2)c2sc(-c3ccccc3)cc2n1
 : 7	2
- CCc1nnc(CN(C)CCN2CCN(c3ccccc3)CC2)o1
 : 3	3
- CC(C)(C)OC(=O)NC1CCCCC1NS(=O)(=O)c1cccc(F)c1 (stereo not drawn)
 : -3	-4
- CC1(c2ccccc2)CC(=O)N(CN2CCOCC2)C1=O (stereo not drawn)
 : -15	-28
- Cc1ccc(Nc2nc(NCCN(C)C)nc3c2cnn3-c2ccccc2)cc1
 : 0	-2
- COc1ccccc1CN1CCn2nc(C(=O)NC3CC3)cc2C1=O
 : 20	19
- CC(=O)NCCC(=O)Nc1ccnn1Cc1cccc(Cl)c1
 : 0	1
- CCC(C(=O)N(Cc1ccc(F)cc1)Cc1cc(NC(=O)COC)ccc1N(C)C)c1ccccc1 (stereo not drawn)
 : -3	3
- N#Cc1c(Cl)cccc1NCC1(N2CCOCC2)CCCCC1
 : 6	3
- CN(CC(=O)Nc1cc(F)cc(F)c1)Cc1cccnc1
 : -1	-1
- CSc1ccc(CNCc2cccnc2N2CCCC(O)C2)cc1 (stereo not drawn)
 : 11	6
- Cc1cc(C(C)NC(=O)Nc2ccc(N3CCCN(C)CC3)c(F)c2)c(C)s1 (stereo not drawn)
 : 0	-3
- O=C(CN1CCN(c2cc(Oc3ccc(F)c(Cl)c3)ncn2)CC1)N1CCCC1
 : -1	6
- O=C(Cn1c(=O)cnc2ccccc21)N(CC1CCCO1)C1CCS(=O)(=O)C1 (stereo not drawn)
 : 3	5
- COc1cccc(N2C(=O)/C(=C/c3ccc(-c4cc(Cl)ccc4Cl)o3)C=C2c2ccccc2)c1
 : 12	9
- CC1Oc2c(cccc2C(=O)N(C)CC(=O)NC(C)(C)C)NC1=O (stereo not drawn)
 : 11	5
- O=C(c1cccc([N+](=O)[O-])c1)N1CCC2(CC1)OCC(C(=O)N1CCOCC1)N2C(=O)c1ccc(F)cc1 (stereo not drawn)
 : 9	20
- Cn1c2nc(=Nc3ccccc3)n3c(c2c(=O)n1-c1ccccc1)CCCCC3
 : 10	7
- O=C(Nc1ccc(Cl)c(-c2nc3cc(Cl)ccc3o2)c1)C1CC1
 : -19	-7
- CN(Cc1ncnn1C)C(=O)CSc1ccccc1
 : -11	-12
- S=c1sc2c(Cl)ncnc2n1-c1ccccc1
 : 1	-1
- Cc1ccc(-n2c(-c3ccccc3C)n[nH]c2=S)cc1
 : -2	2
- COC(=O)CC1(NC(=O)c2cccc(Oc3ccncc3)c2)CCOCC1
 : 7	5
- CCNC(=O)N1CCC(=O)N(C)c2ccccc2C(OCC(=O)NC)C1 (stereo not drawn)
 : 8	16
- OC(COC1CCCc2ccccc21)CN1CCc2sccc2C1 (stereo not drawn)
 : -3	-2
- COc1ccccc1C(=O)C1CCCN(C(=O)c2ccc(C(C)=O)s2)C1 (stereo not drawn)
 : -3&0	-7&-1
- N#Cc1c(N)n(-c2ccccc2O)c2nc3ccccc3nc12
 : 18	26
- CNC(=O)Cn1c(CO)cnc1SCC(=O)N1CCc2ccccc21
 : 7	7
- O=C(O)c1[nH]ncc1CN1CCC(c2[nH]ncc2Cc2ccccc2)CC1
 : 1	2
- N=C1c2ccccc2CN1n1cnc2scc(-c3ccccc3)c2c1=O
 : 6	4
- O=C(O)Cc1csc2nc(-c3cccs3)cn12
 : -2	4
- C(=NN1CCCCC1)c1ccc2c(c1)OCO2
 : 4	2
- COc1ccccc1OCc1cc(C(=O)N(C)C(C)c2cccs2)no1 (stereo not drawn)
 : -7	-14
- CC(C)NCC(O)c1cc(O)cc(O)c1 (stereo not drawn)
 : 32&15&3&0	27&6&0&-26
- CC(C)c1ccc(C=NCCO)cc1
 : 5	2
- COc1ccc(OCCN(C)Cc2cc(=O)oc3cc(C)c(C)cc23)cc1
 : -1	6
- Cn1c2ccccc2c2nnc(SCc3ccc4nonc4c3)nc21
 : 0	-3
- NCC(O)(CS(=O)(=O)O)c1ccc(Cl)cc1 (stereo not drawn)
 : 3	-3
- O=C(NCCn1ncc2c(N3CCCCC3)ncnc21)c1ccc(S(=O)(=O)N2CCCC2)cc1
 : 2	0
- Cc1scc(C(=O)NN2CCN(C)CC2)c1-c1ccccc1
 : -9	-7
- CC1CN(C(=O)CSc2cn(CC(=O)N3CCCCC3)c3ccccc23)CC(C)O1 (stereo not drawn)
 : -5	-7
- Oc1c(N=Nc2ccc3c(c2)OCO3)sc2ccccc12
 : 2	-1
- CCOC(=O)C(Cc1ccc(N=Cc2ccco2)cc1)N1C(=O)c2ccccc2C1=O (stereo not drawn)
 : 0	0
- Cc1c(C)n2c3c(=O)n(Cc4ccccc4Cl)c(=O)n(C)c3nc2n1CCOCCO
 : 0	2
- CSc1ccccc1CN1CCC(Cc2ccc(C(F)(F)F)cc2)CC1
 : 4	4
- Cc1ccccc1NC(=O)CCC(=O)N1CCc2ccccc2C1
 : 3	4
- CCOC(=O)CC(=O)N1C2CCC(O)(CC2)C1CN1CCOCC1 (stereo not drawn)
 : -7	5
- CCNC(=O)c1coc(CN(Cc2ccc(F)cc2)Cc2cccc(OC)c2)n1
 : 1	14

The last five entries of the section before come first, to join the parts:
The line under a structure holds: NPYLR7 agonist	NPYLR7 agonist max-min
- Cc1c(C)n2c3c(=O)n(Cc4ccccc4Cl)c(=O)n(C)c3nc2n1CCOCCO
 : 0	2
- CSc1ccccc1CN1CCC(Cc2ccc(C(F)(F)F)cc2)CC1
 : 4	4
- Cc1ccccc1NC(=O)CCC(=O)N1CCc2ccccc2C1
 : 3	4
- CCOC(=O)CC(=O)N1C2CCC(O)(CC2)C1CN1CCOCC1 (stereo not drawn)
 : -7	5
- CCNC(=O)c1coc(CN(Cc2ccc(F)cc2)Cc2cccc(OC)c2)n1
 : 1	14
- CC(C)Cn1cc(C(=O)NCc2ccco2)c(=O)c(C(=O)N2CCC(Cc3ccccc3)CC2)c1
 : 12	2
- CC(=O)Nc1cccc(NC(=O)CSc2nc(=O)n(N3CCN(C)CC3)c3c2CCCC3)c1
 : 0	-7
- O=S(=O)(c1ccc2c(c1)nc(SCc1noc(-c3ccsc3)n1)n2CC1CC1)N1CCCC1
 : 27	17
- COc1ccc(NC(=O)C=Cc2ccco2)cc1S(=O)(=O)N1CCOCC1
 : -15	-12
- CC(C)(C)c1cn(C2CCN(C(=O)CN3CCCCC3=O)CC2)nn1
 : 15	4
- CCN1CCC(NC(=O)c2ccc(NC(=O)c3ccco3)cc2)CC1
 : 4	1
- CC(Cn1ccnc1)NCc1cnc2ccc(Br)cn12 (stereo not drawn)
 : 7	3
- CCCn1c(=O)c2c(nc3n(-c4ccc(F)cc4)c(C)cn23)n(C)c1=O
 : 39	26
- Cc1nc(-c2ccccc2)sc1C(=O)Nc1ccc(-c2ccc(=O)n(C)n2)cc1
 : 1	0
- CC(C)N(C)S(=O)(=O)N(CCc1ccccc1)Cc1ccccc1
 : 1	3
- C[C@H](NC(=O)c1ccc(-n2nc(-c3cccc(C(F)(F)F)c3)cc2N)cc1)[C@H](O)c1ccccc1
 : -11	-18
- CC(C)C(=O)N1CCN(c2nc3nccc(-c4ccc(C(C)(C)C)cc4)n3n2)CC1
 : 4	-1

Profiles as entered above:
CC(C)N(C)S(=O)(=O)N(CCc1ccccc1)Cc1ccccc1 reads NPYLR7 agonist = 1; NPYLR7 agonist max-min = 3
C[C@H](NC(=O)c1ccc(-n2nc(-c3cccc(C(F)(F)F)c3)cc2N)cc1)[C@H](O)c1ccccc1 reads NPYLR7 agonist = -11; NPYLR7 agonist max-min = -18
CC(Cn1ccnc1)NCc1cnc2ccc(Br)cn12 (stereo not drawn) reads NPYLR7 agonist = 7; NPYLR7 agonist max-min = 3

Assay outcomes: PubChem BioAssay, Fisher Drug Discovery Resource Center
